Biofilm kill mix: mixture kills Candida albicans biofilm cells; inhibition, % at 7.6 µM; hit rate 0.02% among 120,000; C. albicans biofilm persisters + clotrimazole, fluorescence viability; primary screen in compound mixtures of four per well;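 active means inhibition above 30.3% in the primary screen of four-compound pools, then above 30% when the compound was retested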;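 further: compounds exposed to preformed 24 h biofilms for 48 h; the number belongs to the whole pool; some results filed as inactive read as strong as hits; inactives centre near 12; 0% = biofilm with clotrimazole alone and 100% = kill control; retested singly at about 60 µM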
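Assay system: C. albicans biofilms / Medium: RPMI/MOPS medium, pH 7.0 / Schedule: biofilm formation 24 h, compound exposure 48 h, 37 °C / Measured by: Alamar Blue fluorescence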
Starred values were filed as active, the others as inactive. These rows are one share of the data; rates above refer to the full screens.

no.	SMILES	Biofilm kill mix
1	CCc1ccccc1NC(=S)N(CCN(C)C)C(C)c1ccco1 (stereo not drawn)	14
2	O=C1c2ccccc2C(=O)C12OC2c1ccc(Cl)cc1Cl (stereo not drawn)	3
3	CCCn1cc([C@@H]2C[C@H]3CN(Cc4cccc(Cl)c4)C(=O)[C@]34CCCN24)c(C)n1	27
4	CCCCCC(=O)NN=C1CCN(Cc2ccccc2)CC1	-12
5	CCC(C)NS(=O)(=O)c1ccc(N)cc1 (stereo not drawn)	13
6	Cc1cc(NC(=O)c2ccccc2)ncc1NC(=O)c1cccs1	5
7	CC1(C)CC(C(N)=S)CCO1 (stereo not drawn)	8
8	O=C(O)CSc1nnc(-c2ccccc2Br)n1-c1cccc(C(F)(F)F)c1	2
9	Cc1cc(S(=O)(=O)NC(C)C)ccc1OCC(=O)NCc1ccccc1	27
10	CC(=O)c1ccc(NC(=S)NCc2cccnc2)cc1	10
11	Cc1ccc(S(=O)(=O)N(C)c2cc(S(N)(=O)=O)c(C)cc2C)cc1	6
12	C(=N\N(c1ccccc1)c1ccccc1)/c1ccc(N2CCOCC2)s1	13
13	CC1CCc2cc(F)cc3c(=O)c(C(=O)O)cn1c23 (stereo not drawn)	2
14	CC1(C)C(=O)Nc2ccccc2N1C(=O)Cn1ncc(Cl)c(Cl)c1=O	8
15	O=[N+]([O-])c1cc(S(=O)(=O)NCCN2CCOCC2)ccc1Sc1nnnn1-c1ccccc1	21
16	CS(=O)(=O)Cc1cc(Sc2ccccc2)nc(-c2ccncc2)n1	18
17	Cc1nnc(NC(=O)CSc2ccc3nnc(-c4cccnc4)n3n2)s1	15
18	CC(C)(CO)CNC(=O)CCc1nnc(C2(c3ccc(Cl)cc3)CCC2)o1	7
19	COc1cc2c(cc1NC(=O)C(C)NCc1ccccc1)oc1ccccc12 (stereo not drawn)	13
20	Cn1c(Cc2ccccc2)nnc1SCc1cc(=O)n2ccsc2n1	7
21	Cc1cc(=O)[nH]c(SCC(=O)NCC2CCCCC2)c1C#N	2
22	COC(=O)N[C@H](CC(C)=O)c1ccccc1	7
23	CC1=NOC(=O)/C1=C\c1ccc(-c2ccc(Cl)c(C(=O)O)c2)o1	24
24	O=C(C1=C(O)C(=O)N(c2ccccc2)C1c1ccc([N+](=O)[O-])cc1)c1cccs1 (stereo not drawn)	7
25	CN1CCN(C(=O)Nc2cccc(-c3ccccc3)c2)CC1	11
26	O=C(CNC(=O)c1ccc(-c2ccccc2)cc1)OCc1ccc(Br)cc1	5
27	COc1cc(-n2nnnc2SC)c(OC)cc1Cl	13
28	CC(NC(=O)Cn1nc(C(=O)O)c2ccccc2c1=O)C12CC3CC(CC(C3)C1)C2 (stereo not drawn)	6
29	Cc1nc(Nc2c(Cl)cccc2Cl)sc1C(=O)Nc1ccccc1	6
30	CCN(CC)CCNC(=O)c1ccc(NC(=O)c2cccc(S(=O)(=O)Nc3ccc(C)cc3)c2)cc1	6
31	Cc1ccc(OCCSc2ncccn2)c(C)c1	18
32	O=C(CSc1nnc(-c2ccc(S(=O)(=O)N3CCCC3)cc2)o1)NCc1ccccc1	13
33	CCc1ccc(-c2nc(SCC(=O)N3CCOCC3)n[nH]2)cc1	1
34	C=CCCC(=O)Nc1ccc(Br)cn1	10
35	CN(C)C(CNC(=O)c1ccc(S(=O)(=O)NCc2ccco2)cc1)c1ccccc1 (stereo not drawn)	10
36	CC(NC(=O)/C(C#N)=C1\N=C(NC(=O)c2ccco2)c2ccccc21)c1ccccc1 (stereo not drawn)	23
37	C=CCn1c(CCn2c3ccccc3c3ccccc32)n[nH]c1=S	14
38	Cc1ccc(NC(=O)COC(=O)c2cc(C)nc3ccccc23)c([N+](=O)[O-])c1	21
39	Cc1cccc(NC(=O)c2nc[nH]c2C(=O)N[C@@H](Cc2ccccc2)C(=O)OC(C)(C)C)c1	13
40	CCNC(=S)N1CCNC(=O)C1CC(=O)OC (stereo not drawn)	12

Of the compounds above, these contain a COOH group:
no.	SMILES	Biofilm kill mix
8	O=C(O)CSc1nnc(-c2ccccc2Br)n1-c1cccc(C(F)(F)F)c1	2
13	CC1CCc2cc(F)cc3c(=O)c(C(=O)O)cn1c23 (stereo not drawn)	2
23	CC1=NOC(=O)/C1=C\c1ccc(-c2ccc(Cl)c(C(=O)O)c2)o1	24
28	CC(NC(=O)Cn1nc(C(=O)O)c2ccccc2c1=O)C12CC3CC(CC(C3)C1)C2 (stereo not drawn)	6

More structures
no.	SMILES	Biofilm kill mix
41	CCOCCCNC(=O)C(c1ccc(OC)cc1)N(Cc1ccc2c(c1)OCO2)C(=O)c1ccccc1O (stereo not drawn)	18
42	Cc1occc1C(=O)NNC(=O)Nc1ccc(Cl)c(Cl)c1	16
43	COc1cccc(-c2noc(-c3ccc(Br)o3)n2)c1	25
44	COc1ccccc1NC(=O)Nc1cc(C(C)(C)C)nn1C	14
45	CCOC(=O)C1=C(CC)Nc2ccccc2N=C1NC(=O)c1ccc(S(=O)(=O)N2CCCC2)cc1	-4
46	NC1=NC[C@H](Cc2ccc(O)cc2)N1CCCCC1CCCCC1	16
47	C/C(=N\Nc1nc(N2CCOCC2)nc(N2CCOCC2)n1)c1ccc([N+](=O)[O-])cc1	17
48	Cc1onc(-c2ccc(Cl)cc2Cl)c1-c1csc(N/N=C/c2ccccc2)n1	11
49	COc1cccc(C(=O)N2c3ccccc3Sc3ccccc32)c1	21
50	CCCCCCCCCCCCCCCC[n+]1ccc(/C=N/O)cc1	16
51	O=C(NNc1nc2cc3c(cc2s1)OCO3)c1ccccc1	12
52	COc1ccc(/C=N/NC(=O)C[n+]2ccccc2)c(OC)c1	7
53	COc1ccc(Nc2nc(-c3ccc(OC)cc3)cs2)cc1	15
54	COc1cccc(Nc2nc(C)cc(C)c2C#N)c1	8
55	c1ccc(-c2ccc(CN3C[C@@H]4C(c5ccccc5)C5(c6ccccc6)CC4(C5)[C@H]3c3ccccc3)cc2)cc1 (stereo partly drawn)	-3
56	CCOC(=O)N1CCN(c2cc(=O)n(-c3cccc(C)c3)c(=O)[nH]2)CC1	26
57	COc1cc(/C=N\NC(=O)c2cccc(Cl)c2)ccc1Oc1ccc([N+](=O)[O-])cn1	10
58	Cc1ccc2nc(SCC(=O)NCc3ccco3)c(C)cc2c1	16
59	O=C(COc1ccccc1)NNC1=NS(=O)(=O)c2ccccc21	7
60	COc1ccc(-n2c(=O)[nH]c3cc(C(=O)NCCc4ccc(Cl)cc4)ccc3c2=O)cc1OC	29

Random excerpt: seven compounds from above
no.	SMILES	Biofilm kill mix
22	COC(=O)N[C@H](CC(C)=O)c1ccccc1	7
10	CC(=O)c1ccc(NC(=S)NCc2cccnc2)cc1	10
49	COc1cccc(C(=O)N2c3ccccc3Sc3ccccc32)c1	21
60	COc1ccc(-n2c(=O)[nH]c3cc(C(=O)NCCc4ccc(Cl)cc4)ccc3c2=O)cc1OC	29
54	COc1cccc(Nc2nc(C)cc(C)c2C#N)c1	8
40	CCNC(=S)N1CCNC(=O)C1CC(=O)OC (stereo not drawn)	12
16	CS(=O)(=O)Cc1cc(Sc2ccccc2)nc(-c2ccncc2)n1	18

Next part.
no.	SMILES	Biofilm kill mix
61	Cc1nn(-c2ccc(F)cc2)c(N)c1C1(O)C(=O)Nc2ccccc21 (stereo not drawn)	8
62	CC(C(=O)Nc1ccccc1Cl)c1ccc([N+](=O)[O-])cc1 (stereo not drawn)	14
63	Cc1ccc(C2C3=C(CCCC3=O)OC3=C2C(=O)CCC3)cc1	13
64	O=C(CNCC1(N2CCOCC2)CCCCC1)Nc1ccc(Cl)cc1	5
65	O=C(O)CC(CC(=O)O)(C(=O)O)c1ccccc1	22
66	Cc1nc2c(c(=O)n1CCC(C)C)c1nc3ccccc3nc1n2CC1CCCO1 (stereo not drawn)	33
67	COc1cc(CO)ccc1OCc1nnnn1-c1ccc(C)cc1	13
68	Cc1ccc(NCc2ccccc2)cc1	10
69	O=C(NCCc1ccccc1)c1oc2ccccc2c1COc1ccccc1	13
70	CC(=O)NNC(=O)c1[nH]c2ccc(Cl)cc2c1-c1ccccc1	24
71	O=C(CN1C(=O)/C(=C2\SC(=S)N(C3CCS(=O)(=O)C3)C2=O)c2ccccc21)Nc1ccccc1 (stereo not drawn)	14
72	CC(C)(C)NC(=O)N1CCN(c2ncccc2C(F)(F)F)CC1	11
73	CC(C)[C@H](NC(=O)CCCn1nnc2ccccc2c1=O)C(=O)O	13
74	Cc1ccc2oc(=O)c3cc(C(=O)Nc4cc(-c5cccc(F)c5)no4)sc3c2c1	11
75	CCOC(=O)/C(N=Nc1ccc2c(c1)OCO2)=C(\C)O	7
76	Cc1cc(C(=O)NNc2c(Cl)cccc2Cl)no1	21
77	O=C1Nc2c(ccc(Cl)c2Cl)C(=O)C1(F)c1ccccc1 (stereo not drawn)	17
78	O=C1CCC(C(=O)Nc2ccccc2N2CCOCC2)=NN1	22
79	COc1ccc(-c2ccc(C)cc2)cc1[C@H]1[C@H]2C=CC[C@@H](C)[C@@H]2C(=O)N1Cc1ccccc1	24
80	O=C(Nc1ccc(Cl)c(C(F)(F)F)c1)NC1CC2CCCC(C1)N2Cc1ccccc1 (stereo not drawn)	18
81	Cc1ccc(NC(=O)CC(=O)Nc2ccc(C)cc2)cc1	3
82	N#CC1=C(N)Oc2[nH]c(=S)[nH]c(=O)c2C12C(=O)Nc1ccccc12 (stereo not drawn)	20
83	COc1cc(/C=N/NC(=S)NCCN2CCOCC2)cc(OC)c1OC	12
84	Clc1cccc(-c2ccc(CNCCCN3CCOCC3)o2)c1	-1
85	COc1ccc(OCC(O)CNC(=O)c2sccc2Cl)cc1 (stereo not drawn)	13
86	COc1ccc(/C=C/C(=O)OC2CCCCC2CN(C)C)cc1 (stereo not drawn)	10
87	CCCCNc1c([N+](=O)[O-])ncn1C	9
88	COc1ccc(Br)cc1CSC(=N)N	9
89	O=C(O)c1cccc(N/N=C/c2cc(Br)cc(Br)c2O)c1	10
90	CSc1nc2sc3c(c2c(=O)[nH]1)CCC3	14
91	CCCCc1c(O)nc2sccn2c1=O	11
92	Cc1ccc2oc(=S)n(C)c2c1	9
93	COc1cc2c(cc1NC(=O)COC(=O)C(CCSC)NC(=O)c1ccccc1Cl)oc1ccccc12 (stereo not drawn)	10
94	Cc1ccc(C(=O)N2CCC(C)CC2)cc1C	20
95	CC1(c2nnc(-c3ccc(F)cc3)o2)CC(c2ccc(F)cc2)=NO1 (stereo not drawn)	20
96	CCN1CCN(c2nc(Nc3ccccc3)nc(N)c2[N+](=O)[O-])CC1	8
97	Cc1cc(C)cc(NC(=O)CCn2cnc3cc(C)c(C)cc32)c1	10
98	Cc1cccc(OCC(=O)Nc2ccc(N3CCN(C(=O)c4ccco4)CC3)cc2)c1C	7
99	O=C(c1cccc(S(=O)(=O)Nc2cccc(C(F)(F)F)c2)c1)N1CCOCC1	17
100	Cc1ccc(CNC(=O)CCS(=O)(=O)c2ccc(Cl)cc2)cc1	14
101	CC1=CC(C)[C@H](/C=N/n2c(=O)[nH]c3c([nH]c4ccc(Br)cc43)c2=O)C(C)C1 (stereo partly drawn)	10
102	Cc1cccc(NC(=O)c2cc(-c3ccc(C)s3)nc3ccccc23)n1	15
103	CC(C)CNC(=O)Nc1ccccc1F	3
104	CCOC(=O)C(O)(CC(=O)c1ccc(OC)cc1)C(F)(F)F (stereo not drawn)	12
105	CC1=C(C#N)C(c2ccccc2O)C(C#N)=C(C)N1	13
106	O=C(C1CCCCN1S(=O)(=O)c1ccccc1[N+](=O)[O-])N1CCOCC1 (stereo not drawn)	21
107	C=CCNC(=S)N1CC2(C)CN(C(=S)NCC=C)CC(C)(C1)C2=O	12
108	CN1CCN(c2ccc(NC(=O)c3ccc(C(F)(F)F)cc3)cn2)CC1	17
109	COc1ccc(CN=C(NS(=O)(=O)c2cccs2)SC)cc1	9
110	O=C(Cc1ccccc1[N+](=O)[O-])NCc1ccc(Cl)cc1	19

Other compounds.
no.	SMILES	Biofilm kill mix
111	O=C(CCc1ccc(S(=O)(=O)NCc2ccccc2)cc1)NCc1ccco1	4
112	FC(F)(F)c1cccc(NC(=S)N2CCCCCC2)c1	3
113	O=C(O)C1(c2ccccc2)CCN(S(=O)(=O)c2ccc(Cl)s2)CC1	11
114	O=C(Nc1nc2ccccc2c2nc3ccccc3n12)c1ccc(F)cc1	11
115	O=[N+]([O-])c1ccc2[nH]ncc2c1	2
116	CC1(C)Cc2c(ccc3ccccc23)C2=C(C(=O)N3CCCC3)C(=O)C(=O)N21	9
117	CCOC(=O)Cn1nc(C)c(NC(=O)COc2ccccc2)c1C	6
118	CCOC(=O)/C(=N\Nc1ccccc1Cl)N(C)C1CCCCC1	11
119	CC(C)CNc1oc(-c2ccccc2Cl)nc1C#N	21
120	CC(C)NC(=O)CN1C(=O)c2ccccc2S1(=O)=O	24
121	COc1ccc(OC)c(S(=O)(=O)N2CCCCC2C(=O)N2CCN(c3ccccn3)CC2)c1 (stereo not drawn)	8
122	CCC(=O)N/N=C(\C)CC(=O)Nc1cccc([N+](=O)[O-])c1	9
123	C/C(=N\NC(=O)COc1ccccc1)c1ccc(O)cc1	18
124	C1CCc2nnc(C3CC3)n2CC1	-1
125	CCOC(=O)C(=O)c1c(-c2ccccc2)nc2ccccn12	3
126	CCc1cc2c(=O)c(-c3cnn(-c4ccccc4)c3)c(C)oc2cc1OCC(=O)Nc1cccc(C)c1	-6
127	CCOC(=O)Cn1nc(-c2ccccc2)c2cnc3ccc(C)cc3c21	5
128	CCN1CCN(c2ccc(NC(=O)c3ccc([N+](=O)[O-])o3)cc2Cl)CC1	14
129	CCCn1c(=O)c(C(=O)Nc2ncccc2C)c(O)c2ccccc21	8

From PubChem BioAssay
